VDR inhibitor: vitamin D3 receptor (human) inhibition; AID 504847; P11473; Potency, µM, for the others: max response, negative = inhibition, usual class: inhibitors; VDR-SRC2-3 peptide fluorescence polarization, 2 h; actives 0.93% (n = 400,000); active means well fitted inhibition curve with a large enough effect; inconclusive means small, poorly fitted or top-dose-only effect, or another doubt; inactive means no such curve, though single readings can be large or run the other way; further: series mostly up to about 120 µM
Target sequence (P11473 whole entry, looked up): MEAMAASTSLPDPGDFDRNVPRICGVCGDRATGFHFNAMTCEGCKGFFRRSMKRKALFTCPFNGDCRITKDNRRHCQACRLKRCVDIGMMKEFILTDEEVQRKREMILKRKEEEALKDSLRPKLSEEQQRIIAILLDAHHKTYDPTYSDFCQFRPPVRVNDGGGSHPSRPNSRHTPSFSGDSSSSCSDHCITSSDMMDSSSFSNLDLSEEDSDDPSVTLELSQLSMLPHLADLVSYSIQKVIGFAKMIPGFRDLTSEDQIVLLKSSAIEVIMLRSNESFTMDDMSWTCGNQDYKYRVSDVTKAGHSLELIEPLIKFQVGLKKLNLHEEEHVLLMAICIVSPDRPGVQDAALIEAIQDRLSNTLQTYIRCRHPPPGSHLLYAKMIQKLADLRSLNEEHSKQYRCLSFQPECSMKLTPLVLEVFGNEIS
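Two reagent solutions held at 4 deg C in the dark were dispensed, compounds pinned at 23 nl, and the mixture incubated 2 h at room temperature. Read-out: fluorescence polarization of VDR–SRC2-3 peptide binding.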
Active calls of the source: *; & = joins results of further samples. On the % scale 0 is the no-effect control and ±100 the full control effect; potency means the concentration at half of the fitted maximal effect.

CC1CCN(CC(=O)Nc2ccccc2-c2ccccc2)CC1 was read as VDR inhibitor -1%.
Screening O=S1(=O)CCC(SCc2nc3sccn3c2Br)C1 (centres undefined) returned VDR inhibitor 9%.
For CCOC(=O)c1oc2ccc(S(=O)(=O)N3CCC(C)CC3)cc2c1C the results were VDR inhibitor 0%.
Screening Cc1cccc(NS(=O)(=O)c2c(C)nc3sccn3c2=O)c1C returned VDR inhibitor 1%.
For C[n+]1ccccc1COc1ccc(C(C)(C)C)cc1 the results were VDR inhibitor -1%.
O=[N+]([O-])c1ccc2[nH]c(O)c(N=NC3CS(=O)(=O)CC3O)c2c1 (centres undefined) was read as VDR inhibitor -13%.
C=CCOC(=O)/C=C/C(=O)NC(N)=O was read as VDR inhibitor inconclusive.
CCN(CC)C(=O)[C@H]1C[C@H](CC(=O)NCc2cccc(C(F)(F)F)c2)C(=O)N2CCc3c([nH]c4cc(CCC(=O)N(C)C)ccc34)[C@]12C was read as VDR inhibitor 9%.
For CCN(CC)S(=O)(=O)c1ccc(NC2=NS(=O)(=O)c3ccccc32)cc1 the results were VDR inhibitor 9%.
Screening CCN(CC)C(=O)c1sc2c(c1C)c(=O)n(-c1ccc(OC)cc1OC)c(=O)n2CC(=O)c1ccccc1 returned VDR inhibitor 20%.
CC1(C)C2CC=C(/C=N/NC(=O)c3ccc(Cl)cc3)C1C2 (centres undefined) was read as VDR inhibitor -5%.
`Cc1ccc(C(=O)NCC(=O)OCC(=O)N(CC(C)C)c2c(N)n(Cc3ccccc3)c(=O)[nH]c2=O)cc1` gave VDR inhibitor -11%.
CCOC(=O)c1ccc2nc(CCC(=O)N[C@H](C(=O)OC)C(C)C)c(=O)n(CC)c2c1 was read as VDR inhibitor 22%.
For CC(=O)Nc1ccc(C(=O)OCC(=O)NCc2ccccc2)cc1 the results were VDR inhibitor -1%.
COc1cccc2c1Oc1ncccc1N(C(=O)Nc1cccc(Cl)c1)C2 was read as VDR inhibitor 6%.
Screening O=S(=O)(c1ccc(Br)cc1)c1nc(-c2cccs2)oc1SCc1ccccc1F returned VDR inhibitor -1%.
COc1ccc(OC)c(CCNc2nc3ccccc3c3nc(-c4cccnc4)nn23)c1 was read as VDR inhibitor 15%.
CCOc1ccc(CN2CCC(Cc3ccccc3)CC2)cc1 was read as VDR inhibitor -18%.
For Cn1c(=O)c2c(nc(NCCc3ccccc3)n2Cc2ccc(Cl)c(Cl)c2)n(C)c1=O the results were VDR inhibitor -8%.
For CCOc1ccc(NC(=O)N[C@@H](CCSC)C(=O)OC)cc1 the results were VDR inhibitor 18%.
`CCCCCOc1ccc(/C=C/C(=O)Nc2sc(C(C)=O)c(C)c2C(=O)OCC)cc1OC` gave VDR inhibitor -25%.
Screening Cc1ccccc1CNC(=O)Cc1ccccc1[N+](=O)[O-] returned VDR inhibitor 0%.
For CC(C)(C)OC(=O)NC(Cc1ccccc1)C(=O)NC1COC2CC(n3cc(F)c(=O)[nH]c3=O)OC12 (centres undefined) the results were VDR inhibitor 6%.
CCOc1ccccc1NC(=O)CN1C(=O)CC(c2ccc(C)c(C)c2)=Nc2ccccc21 was read as VDR inhibitor 1%.
For COc1ccc(S(=O)(=O)Nc2ccc3c(c2)N(C(C)=O)CCC3)cc1OC the results were VDR inhibitor -7%.
O=C(CSc1ncc(-c2ccccc2)[nH]1)Nc1ccccc1 was read as VDR inhibitor -8%&13%.
For COC(=O)CN1C(C(=O)c2ccccc2)=C(OC(=O)c2ccc(F)cc2)c2ccccc2S1(=O)=O the results were VDR inhibitor 3%.
O=C(NCc1ccccc1)c1cccnc1Sc1ccccc1 was read as VDR inhibitor -9%.
Screening O=C(CN1C(=O)c2cccc3cccc(c23)C1=O)N1CCCCC1 returned VDR inhibitor 7%.
Screening COc1ccc(OC)c(-c2nn(-c3ccccc3)cc2C(=O)N2CCc3ccccc3C2)c1 returned VDR inhibitor 6%.
Screening CCOC(=O)c1c(NC(=O)CN2CCOCC2)sc(C(=O)NC)c1C returned VDR inhibitor 1%.
Screening O=S(=O)(Nc1nc2ccccc2nc1N1CCN(c2ccccn2)CC1)c1ccc(Cl)cc1 returned VDR inhibitor -18%.
`CC(=O)N1CCN(CC(=O)Nc2ccccc2C(=O)NCc2ccc(C)cc2)CC1` gave VDR inhibitor 0%.
Cc1cc(S(=O)(=O)NCc2ccc(S(N)(=O)=O)cc2)c(C)s1 was read as VDR inhibitor -8%.
Screening CCN(CC)CCNc1nc(-n2nc(C)cc2C)nc2sc3c(c12)CC(C)(C)OC3 returned VDR inhibitor -7%.
For COc1ccc2c(C#N)c3ccccn3c2c1 the results were VDR inhibitor -7%.
Screening Cc1ccc(NC(=O)c2cc(NC(=O)c3ccccc3C(=O)O)ccc2N2CCCCC2)cc1 returned VDR inhibitor -23%.
COc1cccc(OC)c1OCCN1CCCC1 was read as VDR inhibitor -6%.
Screening Cc1c(C(=O)c2ccccc2)c(=O)n(C)c(=O)n1C returned VDR inhibitor -6%.
Screening O=C1C2CCc3ccccc3C2N1c1ccccc1 (centres undefined) returned VDR inhibitor 3%.

Taken from the results shown (16 entries):
Screening Cc1ccccc1CNC(=O)Cc1ccccc1[N+](=O)[O-] returned VDR inhibitor 0%.
For CC(C)(C)OC(=O)NC(Cc1ccccc1)C(=O)NC1COC2CC(n3cc(F)c(=O)[nH]c3=O)OC12 (centres undefined) the results were VDR inhibitor 6%.
CCOc1ccccc1NC(=O)CN1C(=O)CC(c2ccc(C)c(C)c2)=Nc2ccccc21 was read as VDR inhibitor 1%.
For COc1ccc(S(=O)(=O)Nc2ccc3c(c2)N(C(C)=O)CCC3)cc1OC the results were VDR inhibitor -7%.
O=C(CSc1ncc(-c2ccccc2)[nH]1)Nc1ccccc1 was read as VDR inhibitor -8%&13%.
For COC(=O)CN1C(C(=O)c2ccccc2)=C(OC(=O)c2ccc(F)cc2)c2ccccc2S1(=O)=O the results were VDR inhibitor 3%.
O=C(NCc1ccccc1)c1cccnc1Sc1ccccc1 was read as VDR inhibitor -9%.
Screening O=C(CN1C(=O)c2cccc3cccc(c23)C1=O)N1CCCCC1 returned VDR inhibitor 7%.
Screening COc1ccc(OC)c(-c2nn(-c3ccccc3)cc2C(=O)N2CCc3ccccc3C2)c1 returned VDR inhibitor 6%.
Screening CCOC(=O)c1c(NC(=O)CN2CCOCC2)sc(C(=O)NC)c1C returned VDR inhibitor 1%.
Screening O=S(=O)(Nc1nc2ccccc2nc1N1CCN(c2ccccn2)CC1)c1ccc(Cl)cc1 returned VDR inhibitor -18%.
`CC(=O)N1CCN(CC(=O)Nc2ccccc2C(=O)NCc2ccc(C)cc2)CC1` gave VDR inhibitor 0%.
Cc1cc(S(=O)(=O)NCc2ccc(S(N)(=O)=O)cc2)c(C)s1 was read as VDR inhibitor -8%.
Screening CCN(CC)CCNc1nc(-n2nc(C)cc2C)nc2sc3c(c12)CC(C)(C)OC3 returned VDR inhibitor -7%.
For COc1ccc2c(C#N)c3ccccn3c2c1 the results were VDR inhibitor -7%.
Screening Cc1ccc(NC(=O)c2cc(NC(=O)c3ccccc3C(=O)O)ccc2N2CCCCC2)cc1 returned VDR inhibitor -23%.

Continued.
`Cn1cccc1/C=N/NC(=O)c1cccnc1` gave VDR inhibitor 3%.
`C=CCn1cnc2scc(-c3ccc(C)c(C)c3)c2c1=O` gave VDR inhibitor -9%.
Screening c1ccc(-c2cn(-c3ccccc3)c3ncnc(N4CCCCC4)c23)cc1 returned VDR inhibitor -5%.
`CCOC(=O)C1CCN(C(c2ccc(F)cc2)c2sc3nc(-c4ccco4)nn3c2O)CC1` (centres undefined) gave VDR inhibitor 4%.
Screening Cc1cc(C)nc(SCc2nc(N)nc(-c3ccccc3O)n2)n1 returned VDR inhibitor 3%.
For CCn1c(-c2ccccc2)csc1=Nc1ccc(O)cc1 the results were VDR inhibitor -7%.
COC(=O)c1ccc2c(=O)n(NC(C)=O)c(=S)[nH]c2c1 was read as VDR inhibitor 5%.
`Cc1ccc(-n2ncc3c2CCCC3NC(=O)CSc2ccccn2)cc1C` (centres undefined) gave VDR inhibitor -25%.
Screening O=C(Nc1cccc(S(=O)(=O)N2CCCC2)c1)c1cccc(OC(F)F)c1 returned VDR inhibitor -10%.
`COCCNC(=O)C1CCN(S(=O)(=O)N2CCC3(CC2)OCCO3)CC1` gave VDR inhibitor -15%.
`CCc1ccccc1-n1c(SCC(=O)Nc2ccc3c(c2)OCCO3)nc2[nH]ncc2c1=O` gave VDR inhibitor 8%.
`O=C(Cn1cnc2cc([N+](=O)[O-])ccc2c1=O)NCCc1ccc(Cl)cc1` gave VDR inhibitor -18%.
CCCC(=O)N(c1ccc(OCC)cc1)C1C=CS(=O)(=O)C1 (centres undefined) was read as VDR inhibitor 7%.
Screening COc1ccc(CNc2oc(-c3ccc(COc4ccc(Cl)cc4)o3)nc2C#N)cc1 returned VDR inhibitor 5%.
Screening CCc1ccc(S(=O)(=O)N2c3ccc(C)cc3C3CN(C)CCC32)cc1 (centres undefined) returned VDR inhibitor -30%.
Screening CCOC(=O)c1cccnc1NC(=O)c1ccncc1 returned VDR inhibitor -17%.
For CCN(CC)CC(=O)N1CCCC(N2CCN(c3cccc(C(F)(F)F)c3)CC2)C1 (centres undefined) the results were VDR inhibitor -7%.
`Cn1c(-[n+]2c(-c3ccccc3)cc(-c3ccccc3)cc2-c2ccccc2)nc2c([N+](=O)[O-])cccc21` gave VDR inhibitor -24%.
COc1ccc(CC(=O)NC(C)c2ccc(S(N)(=O)=O)cc2)cc1S(=O)(=O)N1CCOCC1 (centres undefined) was read as VDR inhibitor -19%.
CCC(=O)c1cc(F)ccc1OCC(=O)Nc1ccc2c(c1)OCCO2 was read as VDR inhibitor -5%.
`Cc1cc(C)c(NC(=O)CSc2ccc(-c3cccnc3)nn2)c(C)c1` gave VDR inhibitor 2%.
O=C(COc1ccccc1)NC(=S)Nc1cccc(NC(=O)c2ccccc2Cl)c1 was read as VDR inhibitor -16%.
`CCN(CC(=O)NCc1ccc(F)cc1)Cc1nc2ccccc2c(=O)[nH]1` gave VDR inhibitor -9%.
`O=C1CNC(=O)/C1=C\c1ccc(O)cc1` gave VDR inhibitor -14%.
`Cc1cccn2c(=O)c(C(=O)NC(C)c3ccccc3)c(O)nc12` (centres undefined) gave VDR inhibitor 1%.
`Cc1ccc2nc(COc3ccccc3NC(=O)COc3ccccc3Cl)cc(=O)n2c1` gave VDR inhibitor -2%.
`COc1ccc(CNC(=O)CCSCc2ccccc2Cl)c(OC)c1` gave VDR inhibitor 2%.
`CCCc1cc(=O)n2[nH]c(-c3ccc(C)cc3)cc2n1` gave VDR inhibitor -12%.
For O=C(c1ccccc1)N(Cc1ccc(F)cc1)C1CCS(=O)(=O)C1 (centres undefined) the results were VDR inhibitor 2%.
CCOCCn1c(CN2CCN(c3ccc(F)cc3)CC2)nc2c1c(=O)n(C)c(=O)n2C was read as VDR inhibitor 5%.
CCOc1ccc(-n2c(O)c(/C=N/NC(=O)C3COc4ccccc4O3)c3ccccc3c2=O)cc1 (centres undefined) was read as VDR inhibitor 20%.
Screening S=C(NCCN1CCOCC1)Nc1ccc(Cl)cc1Cl returned VDR inhibitor -25%.
`CCOC(=O)c1ccccc1NC(=O)c1sc2nc3n(c(=O)c2c1C)CCCC3` gave VDR inhibitor 18%.
Screening COc1cccc(C(=O)Nc2cccc(NC(=O)c3ccccc3Cl)c2)c1 returned VDR inhibitor -10%.
For C=CCNC(=O)c1onc(CSc2ccc(Cl)cc2)c1C(=O)O the results were VDR inhibitor 2%.
O=C(Nc1ccccc1C(F)(F)F)c1ccc2oc(=O)c(S(=O)(=O)c3ccc(F)cc3)cc2c1 was read as VDR inhibitor -14%.
For COC(=O)C(NC(=O)CCC(=O)NC(C(=O)OC)c1ccccc1)c1ccccc1 (centres undefined) the results were VDR inhibitor inconclusive.
COc1ccc(NC(=O)CSc2nnc(Cc3cccn3C)n2-c2ccc(OC)cc2)cc1 was read as VDR inhibitor 8%.
`Cc1cccc(C(=O)NCC(=O)NC(C)c2ccc(-n3ccnc3)cc2)c1` (centres undefined) gave VDR inhibitor 5%.
CCCn1c(N)c(C(=O)CSc2nnc(C3CC3)n2Cc2ccccc2)c(=O)n(C)c1=O was read as VDR inhibitor 17%.
Screening COc1cccc(-c2nnc3n2N=C(c2cc(OC)ccc2OC)CS3)c1 returned VDR inhibitor 5%.
`COc1ccc([C@H]2Cc3cc(O)cc(O)c3C(=O)O2)cc1O` gave VDR inhibitor -6%.
Screening COc1ccc(-c2nc(SCC(=O)NC3CCCC3)c(-c3ccc(F)cc3)[nH]2)cc1OC returned VDR inhibitor -7%.
Screening CCCCOc1ccc(C(=O)NCC(=O)NCCCn2nc(C)cc2C)cc1 returned VDR inhibitor -2%.
Screening O=C(COc1ccccc1[N+](=O)[O-])Nc1cc(Cl)ccc1C(=O)O returned VDR inhibitor -3%.
CCN(CC)S(=O)(=O)c1ccc(C(=O)Oc2cc(C)[nH]c(=O)c2[N+](=O)[O-])cc1 was read as VDR inhibitor 8%.
Screening O=S(=O)(Nc1ncccn1)c1ccc(F)cc1 returned VDR inhibitor -4%.
CC(=O)OCC(=O)[C@@]1(O)CCC2C3CCC4=CC(=O)CC[C@@]4(C)[C@]3(F)C(O)C[C@]21C (some centres undefined) was read as VDR inhibitor 0%.
`COc1ccc(CCC(=O)NCCc2ccc(Cl)cc2)cc1` gave VDR inhibitor 8%.
O=C(c1ccc2c(c1)N(Cc1ccccc1)C(=O)c1ccccc1S2(=O)=O)N1CCCCCC1 was read as VDR inhibitor -17%.
`COc1ccc(C2C(C(C)=O)=C(O)C(=O)N2c2cccnc2)cc1OC` (centres undefined) gave VDR inhibitor -2%.
Cc1ccccc1CNC(=O)CCCn1c(=O)c2cccn2c2ccccc21 was read as VDR inhibitor 7%.
For CCc1nonc1NC(=O)c1oc2cc(Br)ccc2c1C the results were VDR inhibitor 7%.
Screening CC1C=CC=CC=CC=CC=CC=CC=CC(OC2OC(C)C(O)C(N)C2O)CC2OC(O)(CC(O)CC(O)C(O)CCC(O)CC(O)CC(=O)OC(C)C(C)C1O)CC(O)C2C(=O)O (centres undefined) returned VDR inhibitor -9%.

Screening results deposited in PubChem by National Center for Advancing Translational Sciences (NCATS).

The list is partial (hit frequency here may not be typical).
